WNV NS2B-NS3 inh = WNV NS2B-NS3 proteinase inhibition. P06935. WNV NS2B-NS3 protease, fluorogenic substrate Ex360/Em465; stronger effect = lower value. AID 577. 65,000 compounds, 0.18% hits. z-score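 (tested at a level between 10 and 100 µM)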;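 active means z-score at -3 or under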;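 further: score is relative to mean and spread of the compound wells of a plate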
Target sequence (P06935 1371-1501 limits assumed): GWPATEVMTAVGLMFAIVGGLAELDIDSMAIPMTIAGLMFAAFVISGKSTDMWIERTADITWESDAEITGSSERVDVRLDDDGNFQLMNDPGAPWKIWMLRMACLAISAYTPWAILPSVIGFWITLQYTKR
Target sequence (P06935 1502-1679 limits assumed): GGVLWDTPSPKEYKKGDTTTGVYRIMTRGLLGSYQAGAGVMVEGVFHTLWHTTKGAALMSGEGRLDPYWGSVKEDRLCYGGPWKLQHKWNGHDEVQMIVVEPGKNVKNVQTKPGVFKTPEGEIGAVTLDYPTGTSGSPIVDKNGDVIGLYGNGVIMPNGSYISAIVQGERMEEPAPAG
MT1-MMP reporter = MT1-MMP gene expression reporter suppression – cell-based, luciferase reporter, luminescence (AID 618); 87,000 compounds, 0.62% hits; MT1-MMP promoter luciferase reporter cells, luminescence; calls from a first round at 10 µM; hits with a dose series show EC50 in µM;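 active means over half of the reporter light lost at 10 µM or EC50 under 50 µM; inactive means the rest and hits that failed the dose series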;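 further: actives suppress MT1-MMP promoter-driven transcription so potencies describe inhibitors; HT1080 fibrosarcoma cells; overnight exposure; toxic or luciferase-blocking compounds were not removed from the actives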
Hsc70 = Hsc70 inhibitors, probe displacement, primary screen, biochemical, fluorescence polarization (AID 568) | one-dose displacement, % at 20 µM; IC50 in µM for titrated hits | Hsc70 fluorescence polarization, probe displacement; higher % means a stronger effect; strong numbers were not always called active | 83,000 tested, under 10 active;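 active means displacement above 50% without optical interference and an IC50 on retest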;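 further: ATPase domain with a fluorescein-tagged ATP probe; 0% = vehicle and 100% = excess ADP; read after one hour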
An asterisk follows results filed as active; i = inactive; . = no result given; + = active, no number.

Order of values – WNV NS2B-NS3 inh | MT1-MMP reporter | Hsc70
1	CCc1nc(N2CCOCC2)c(C#N)c2c1COC(C)(C)C2
  0.78 | i | 3.7%
2	O=C(NC12CC3CC(CC(C3)C1)C2)C1CCCN1C(=O)NC1CCCCC1 (centres undefined)
  0.7 | i | 3.5%
3	Cc1ccnc(N2C(=O)c3ccccc3C2Nc2cccc(C)c2C)c1 (centres undefined)
  -0.83 | i | -0.5%
4	Cn1c(=O)cc(N2CCc3ccccc32)[nH]c1=O
  -1.1 | i | 3.2%
5	CC(=O)Nc1cccc(NC(=O)CCn2cnc3cc(C)c(C)cc32)c1
  0.02 | i | -3.0%
6	Cc1ccc(-n2c(-c3ccncc3)nnc2-c2ccco2)cc1
  0.13 | i | 1.2%
7	CCc1nnc(NC(=O)c2cccs2)s1
  1.5 | i | -0.8%
8	CC(C)CN(C(=O)COC(=O)Cc1n[nH]c(=O)c2ccccc12)C1CCS(=O)(=O)C1 (centres undefined)
  0.81 | i | 2.2%
9	CCOC(=O)c1c(C)[nH]c(C)c1C(=O)CSc1nnnn1-c1ccccc1
  -0.79 | i | -0.7%
10	CC(Oc1ccc(Cl)cc1Cl)C(=O)OCn1nnc2ccccc2c1=O (centres undefined)
  . | i | 1.6%
11	Cc1cc(N2CCN(C(=O)c3ccco3)CC2)n2nc(C)c(-c3ccc(Cl)cc3)c2n1
  -0.32 | i | -1.0%
12	O=C(Nc1cc(C(F)(F)F)ccc1-n1cncn1)c1ccc(-c2ccccc2)cc1
  . | i | 5.5%
13	O=C(NCCCn1ccnc1)Nc1cccc(Cl)c1
  -0.84 | i | -1.3%
14	CCCC(=O)Nc1cc(C)c(NC(=O)c2ccncc2)cn1
  -1.1 | i | 3.1%
15	COc1ccc(CC(=O)NCc2nnc(SCC(=O)N3CCN(c4ccccc4)CC3)n2C)cc1
  0.5 | i | -0.1%
16	O=C1CN(C(=O)c2ccc(Br)o2)C(c2ccc(F)cc2)c2cc(Cl)ccc2N1 (centres undefined)
  -0.33 | i | 6.7%
17	CC1CCc2nc(NC(=O)CN3CCN(c4ccc(F)cc4)CC3)sc2C1 (centres undefined)
  . | i | -3.2%
18	CCN(CC)CCNC(=O)CS(=O)Cc1nc(-c2ccc(C)cc2)oc1C (centres undefined)
  -0.45 | i | 27%
19	C=CCOC(=O)C1=C(C)Nc2nnnn2C1c1cc(OC)ccc1OC (centres undefined)
  0.24 | i | -3.4%
20	CN(Cc1ccccc1)Cc1ccccc1F
  -0.24 | i | 0.3%
21	O=C(Nc1ccc(NC(=O)C2CCCCC2)nc1)c1ccco1
  . | i | -4.6%
22	CC(=O)C1=C(O)CCC1=NCCc1ccccc1
  . | i | 1.7%
23	COc1ccc(CN(CC2CCCO2)C(=O)CN2C(=O)COc3ccccc32)cc1OC (centres undefined)
  . | i | 1.5%
24	Cn1cc(/C=N/n2cnc3scc(-c4ccc(Cl)cc4)c3c2=O)c2ccccc21
  0.34 | i | -25%
25	COc1c(Cl)cc(-c2noc(C)c2C(=O)NCc2ccc3c(c2)OCO3)cc1Cl
  0.38 | i | 2.6%
26	Nc1cc(N)nc(SCC(=O)Nc2ccc(Br)cc2Cl)n1
  0.01 | i | -0.5%
27	Cc1noc(NS(=O)(=O)c2ccc(N/C=C/C(=O)c3ccccc3)cc2)c1C
  . | i | 0.6%
28	C/C(=C1/SC(N2CCOCC2)=NC1=O)c1ccc(Cl)cc1
  -1 | i | 1.8%
29	N=c1c(C(=O)NCc2ccc(F)cc2)cc2c(=O)n3ccccc3nc2n1Cc1cccnc1
  . | i | 15%
30	CCOC(=O)N1CCN(C2CC(=O)N(c3ccc(C)cc3)C2=O)CC1 (centres undefined)
  0.22 | i | 1.0%
31	Nc1nc(SCC(=O)NCc2ccccc2)n[nH]1
  -2.2 | i | 0.2%
32	Cc1ccc(S(=O)(=O)N2CCN(C(=O)c3cccc(F)c3)CC2)cc1
  -0.27 | i | 6.9%
33	COc1ccc(/C=N/Nc2nc3ccccc3o2)cc1OC
  . | i | -4.4%
34	O=C1C2C3C=CC(C3)C2C(=O)N1c1cccc2cccnc12 (centres undefined)
  -0.22 | i | -0.8%
35	O=C(N1CCOCC1)N1CCN(c2ccc(F)cc2)CC1
  . | i | -4.1%
36	Cn1nnnc1SCC(=O)N1c2ccccc2Sc2ccc(Cl)cc21
  0.2 | i | 0.3%
37	O=C1CC(Sc2nnnn2C2CCCCC2)C(=O)N1c1ccccc1 (centres undefined)
  -1.6 | i | 1.2%
38	Cn1nnnc1SCC(=O)Nc1ccccc1Cl
  -0.5 | i | 0.0%
39	CCN(CC)C(=O)c1cc2c(=O)n3ccccc3nc2s1
  3.4 | i | -0.3%
40	CC1(C(=O)O)CCC(C(=O)Nc2ccccc2)C1(C)C (centres undefined)
  0.25 | i | -3.7%
41	CC1(C)CC(=O)C2=C(C1)Oc1nc3ccccc3cc1C2C(C#N)C#N (centres undefined)
  -0.01 | i | -5.1%
42	O=C(COC(=O)CC12CC3CC(CC(C3)C1)C2)Nc1ncc(Cl)cc1Cl
  . | i | -1.4%
43	O=C(CSc1nc2c(c(=O)n1-c1ccc(Br)cc1)SCC2)Nc1nccs1
  -1.5 | i | -5.9%
44	COc1ccc(N2CCN(CCCNC(=O)CC3Oc4ccc(C)cc4NC3=O)CC2)cc1 (centres undefined)
  0.43 | i | 3.4%
45	CCOC(=O)c1ccc(Nc2ncnc3nc[nH]c23)cc1
  -0.97 | i | -0.2%
46	CCOC(=O)N1CCC(NC(=O)CCN2C(=O)C3C4C=CC(C4)C3C2=O)CC1 (centres undefined)
  -1.5 | i | 6.9%
47	c1ccc(CC2CCN(C3=Nc4cccc5cccc3c45)CC2)cc1
  . | i | -5.1%
48	Cc1ccc(C)n1-c1ccc(C(=O)N2CCOCC2)cc1
  -1.1 | i | 0.3%
49	CN(C)c1ccc(CNn2cnnc2SCc2ccccc2F)cc1
  -0.63 | i | -2.0%
50	CC(=O)NC1C(=O)N(CCc2ccccc2)c2ccc(Br)cc21 (centres undefined)
  . | i | 1.6%
51	CCOc1cccc(-c2nnc3sc(C4CCCCC4)nn23)c1
  0.07 | i | -3.3%
52	COC(=O)c1c(NC(=O)CC2SCC(C(=O)OC)NC2=O)sc2c1CCCC2 (centres undefined)
  0.2 | i | -7.1%
53	Cn1c(N)c(C(=O)COC(=O)C2CCCCC2)c(=O)n(C)c1=O
  . | i | 1.4%
54	COc1ccc(OC)c(-c2nc3c(C)n[nH]c(=O)c3[nH]2)c1
  -0.25 | i | -4.7%
55	C#CCSc1nnc(-c2ccc(C)cc2)o1
  . | i | -0.5%
56	O=C(O)CN=C1NC2(CCCCC2)Cc2ccccc21
  . | i | 2.1%
57	COCCSc1nnc(NC(=O)CSCc2ccccc2)s1
  -0.4 | i | 0.0%
58	Cc1cc(NC(=O)CSc2nnc(-c3ccccc3)n2Cc2ccco2)no1
  . | i | 0.4%
59	C=C(C)C1Cc2c(C)nn(-c3cc(C)c4ccccc4n3)c2C1 (centres undefined)
  . | i | 7.4%
60	O=C(c1ccco1)N1CCN(C(=O)c2cc(-c3ccccn3)nc3ccc(Cl)cc23)CC1
  -0.11 | i | 23%

One compound at a time, from the list above. Values in the order: WNV NS2B-NS3 inh | MT1-MMP reporter | Hsc70
Shown for C=C(C)C1Cc2c(C)nn(-c3cc(C)c4ccccc4n3)c2C1 (centres undefined) → . | i | 7.4%
Shown for CCOc1cccc(-c2nnc3sc(C4CCCCC4)nn23)c1 → 0.07 | i | -3.3%
Shown for CN(C)c1ccc(CNn2cnnc2SCc2ccccc2F)cc1 → -0.63 | i | -2.0%
Shown for O=C(c1ccco1)N1CCN(C(=O)c2cc(-c3ccccn3)nc3ccc(Cl)cc23)CC1 → -0.11 | i | 23%
Shown for O=C(O)CN=C1NC2(CCCCC2)Cc2ccccc21 → . | i | 2.1%

Next section
Order of values – WNV NS2B-NS3 inh | MT1-MMP reporter | Hsc70
61	COc1cc(C(=O)Nc2nc3ccc(S(=O)(=O)N4CCOCC4)cc3s2)cc(OC)c1OC
  -0.08 | i | 1.0%
62	Cc1ccc(-n2nnc3c(=O)oc4ccccc4c32)cc1
  -0.45 | i | -1.8%
63	CC(C)CCn1c(SCC(=O)OCn2nnc3ccccc3c2=O)nc2ccccc2c1=O
  -0.7 | i | -2.6%
64	COc1cccc(-c2nnc(NC(=O)Cc3cccs3)s2)c1
  -0.31 | i | -12%
65	COC(=O)NC1(C(F)(F)F)NC(=O)N(C2CCCCC2)C1=O (centres undefined)
  -0.16 | i | 5.7%
66	Oc1c(C(c2ccccc2)N2CCc3ccccc3C2)sc2ncnn12 (centres undefined)
  1.2 | i | 6.2%
67	Cn1nc2c(c1C(=O)O)CCCC2
  . | i | 3.5%
68	Cc1cc(C(=O)CN2C(=O)c3ccccc3S2(=O)=O)c(C)n1-c1ccccc1
  -0.84 | + | 1.8%
69	CCOC(=O)c1ccc(NS(=O)(=O)CC)cc1
  -0.67 | i | 0.4%
70	O=c1[nH]cnc2c1cnn2Cc1ccccc1
  -0.83 | i | 3.0%
71	O=C(CCn1nnc(-c2cccs2)n1)NC1CCCCC1
  -0.45 | i | -3.2%
72	CCc1cc2cc(C)cc(C)c2nc1SCC(=O)N1CCN(C(=O)c2ccco2)CC1
  1.1 | i | 1.2%
73	O=C(CCN1CCc2ccccc2C1)Nc1cccc(F)c1
  0.1 | i | 11%
74	CCOC(=O)Cn1c(SC)nc2sc3c(c2c1=O)CC(C)(C)OC3
  0.15 | i | -0.7%
75	C(=N\n1cnnc1)/c1cccc(Oc2ccccc2)c1
  0.69 | i | 0.6%
76	FC(F)(F)c1cnc2c(c1)Nc1ccccc1S2
  -0.14 | i | -11%
77	COc1cc(C(=O)Nc2ccc(NC(=O)C(C)C)nc2)cc(OC)c1OC
  -1.4 | i | -0.5%
78	CC(C)(C)NCCCCOc1ccccc1F
  0.39 | i | 4.6%
79	O=C(CN1CCSCC1)N/N=C/c1ccc(F)cc1F
  . | i | -1.3%
80	COCCNC(=O)C1CC(=O)N(CCc2ccccc2)C1 (centres undefined)
  0.51 | i | -7.0%
81	Cc1nnc(NC(=O)C2(c3ccccc3)CCOCC2)s1
  1.2 | i | 12%
82	CCC(CO)NCCNC(CC)CO (centres undefined)
  -0.19 | i | 2.4%
83	CCCOC(=O)Nc1cc(OC)c(Cl)cc1OC
  0.8 | i | 6.7%
84	NC(=O)CSc1nnc(-c2cccc(S(=O)(=O)N3CCOCC3)c2)n1C1CCCCCC1
  . | i | -0.2%
85	COc1ccc(OC)c(S(=O)(=O)NCCc2cn3ccsc3n2)c1
  -0.78 | i | 4.2%
86	Cc1ccc2c(c1)N(CC(=O)NC1CCCCC1C)C(=O)CO2 (centres undefined)
  -0.04 | i | -0.2%
87	Cc1ccc(S(=O)(=O)N2CCCOC2)cc1
  . | i | -6.0%
88	c1cc2[nH]snc2c2nc(C3CC3)nc12
  0.56 | i | -5.8%
89	O=C(COC(=O)C1=COCCO1)Nc1ncc(C(F)(F)F)cc1Cl
  -0.29 | i | -8.8%
90	Cc1oc2c(c1C(=O)Nc1cccc(C(=O)O)c1)CCCC2
  . | i | 5.1%
91	O=c1c2c3c(sc2nc2sc(C4CC4)nn12)CCCC3
  0.04 | i | -7.8%
92	COCCCNC(=O)C1CC(=O)N(C2CCCC2)C1 (centres undefined)
  0.46 | i | 8.2%
93	CCCC(=O)Nc1nc(C(=O)OCC)cs1
  -1.4 | i | -0.2%
94	O=C(COc1ccc(-n2cnnn2)cc1)N1CCN(c2ccc(F)cc2)CC1
  -0.51 | i | -7.6%
95	COc1ccc(C2C=C(c3ccccc3)Nc3nc(CCCO)nn32)cc1 (centres undefined)
  1 | i | 10%
96	CC(C)CCOCC(=O)Nc1cccc(C(=O)O)c1
  0.2 | i | -2.7%
97	COc1cccc(NC(=O)C2C3CC4OC(=O)C2C4C3)c1 (centres undefined)
  0.05 | i | 11%
98	O=C(NCC(O)CO)c1ccc2[nH]c3ccccc3c2c1 (centres undefined)
  . | i | 1.7%
99	COC(=O)c1cc(NC(=O)CC2SCCNC2=O)cc(C(=O)OC)c1 (centres undefined)
  -1.4 | i | 4.9%
100	COc1cccc(-c2nnc(SCC(=O)N(C(C)C)C(C)C)o2)c1
  -0.6 | i | 0.5%

Overlap with the part before: 2 entries; new compounds follow.
Order of values – WNV NS2B-NS3 inh | MT1-MMP reporter | Hsc70
99	COC(=O)c1cc(NC(=O)CC2SCCNC2=O)cc(C(=O)OC)c1 (centres undefined)
  -1.4 | i | 4.9%
100	COc1cccc(-c2nnc(SCC(=O)N(C(C)C)C(C)C)o2)c1
  -0.6 | i | 0.5%
101	Cc1ccc(CS(=O)(=O)Cc2ccc(C(=O)NCc3ccco3)o2)cc1
  1.6 | i | 4.7%
102	CCC(=O)c1ccc(OCC(O)CN2CCCCC2)cc1 (centres undefined)
  . | i | 1.6%
103	O=C(CCS(=O)(=O)Cc1ccccc1)NCc1ccco1
  0.27 | i | 3.2%
104	C=CCOC(=O)C1=C(C)NC(SCC(=O)NC(=O)OCC)=C(C#N)C1c1cccnc1 (centres undefined)
  -0.66 | i | 13%
105	COc1cccc(NC(=O)C2CC(=O)N=C(N)S2)c1 (centres undefined)
  -1.1 | i | -5.3%

Already shown: entries from further up.
Order of values – WNV NS2B-NS3 inh | MT1-MMP reporter | Hsc70
104	C=CCOC(=O)C1=C(C)NC(SCC(=O)NC(=O)OCC)=C(C#N)C1c1cccnc1 (centres undefined)
  -0.66 | i | 13%
105	COc1cccc(NC(=O)C2CC(=O)N=C(N)S2)c1 (centres undefined)
  -1.1 | i | -5.3%
